TRPML1 ag = agonists of human TRPML1 channel; Q9GZU1; TRPML1-expressing cells, Ca2+ dye fluorescence, FDSS; host cell line not named in the record; reference of the full effect not given here; activation, % (no concentration beside the values); 0.12% of 410,000 active; in the data active = activation above about 50%; inconclusive = about 30% to 50%; inactive = below about 30%; also: 0% is about no effect; the text of the record puts the active cut at 80%
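Kinetic FDSS Ca2+ read in Tet-induced TRPML1-DL cells (ABD Ca8 dye plus quencher, 45-90 min RT loading): baseline, then compound, then 110 s agonist window; EC80 agonist 54-4 at 4uM final added afterwards for a 110 s antagonist window.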
Six1-Eya2 inh = inhibitors of human Six1/Eya2 interaction. Q15475+O00167. AlphaScreen GST-Six1/His-Eya2 binding, biochemical; active compounds read low; control for the full effect not named in the record. activity change, % (concentration not given with the values). 0.56% of 360,000 active. AID 651725; in the data active = activity change below about -65%; inconclusive = about -30% to -65%; inactive = above about -30%; also: % is scaled to controls: 0 for no effect and ±100 for the full control effect
Target sequence (O00167 whole entry, looked up): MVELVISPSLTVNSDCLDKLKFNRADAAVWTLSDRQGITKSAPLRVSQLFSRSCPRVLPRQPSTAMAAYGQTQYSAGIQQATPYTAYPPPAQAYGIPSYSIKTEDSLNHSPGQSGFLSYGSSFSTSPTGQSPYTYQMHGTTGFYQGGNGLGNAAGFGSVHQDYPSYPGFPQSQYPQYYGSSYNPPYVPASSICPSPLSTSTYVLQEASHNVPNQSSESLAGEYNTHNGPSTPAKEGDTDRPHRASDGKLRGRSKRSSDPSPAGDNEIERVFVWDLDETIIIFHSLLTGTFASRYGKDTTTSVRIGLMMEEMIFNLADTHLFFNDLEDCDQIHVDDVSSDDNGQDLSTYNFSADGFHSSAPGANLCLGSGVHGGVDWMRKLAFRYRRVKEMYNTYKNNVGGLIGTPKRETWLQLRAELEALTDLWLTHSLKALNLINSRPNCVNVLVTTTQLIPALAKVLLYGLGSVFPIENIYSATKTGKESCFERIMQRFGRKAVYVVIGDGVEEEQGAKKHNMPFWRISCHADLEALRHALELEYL
Target sequence (Q15475 whole entry, looked up): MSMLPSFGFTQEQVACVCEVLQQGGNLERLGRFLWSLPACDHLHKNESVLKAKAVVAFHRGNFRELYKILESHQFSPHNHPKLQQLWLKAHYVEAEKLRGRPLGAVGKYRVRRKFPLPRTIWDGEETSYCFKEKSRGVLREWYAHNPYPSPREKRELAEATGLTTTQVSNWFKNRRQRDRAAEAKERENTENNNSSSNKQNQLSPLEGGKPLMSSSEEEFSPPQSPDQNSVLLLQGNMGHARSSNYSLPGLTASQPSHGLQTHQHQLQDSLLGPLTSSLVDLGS
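Compounds are tested against tagged Six1 and Eya2 proteins bridged by glutathione donor and nickel acceptor beads; after a one-hour incubation at 37 °C without light, AlphaScreen emission is recorded.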
CtBP-E1A inh = inhibitors of CtBP/E1A interaction; AlphaScreen GST-E1A/His-CtBP binding, 1536-well; active compounds read low; control for the full effect not named in the record; activity change, % (no concentration beside the values); 0.49% of 340,000 active; AID 651724; in the data active means activity change below about -65%; inconclusive means about -30% to -65%; inactive means above about -30%; also: % is scaled to controls: 0 for no effect and ±100 for the full control effect
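Homogeneous bead-based format: GST-tagged E1A captured on glutathione donor beads, His-tagged CtBP on nickel acceptor beads; compounds precede bead addition by 2 h at 37 °C.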
PINK1 modulator = changes PINK1 expression; AID 624263; 0.2% of 410,000 active; PINK1 immunofluorescence, high-content cytometry, 24 h; Potency, µM (titrated, usually from 76.6 µM), for the others: at the highest dose activation (PINK1 increase), usual class: activators; active = well fitted activation curve with a large enough effect; inconclusive = small, poorly fitted or top-dose-only effect; inactive = flat fitted curve, though single readings scatter; cell line not stated here;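 also: potency is read from the fitted curve at half-maximal effect; % of control where 0% means no effect; nearly all actives have a fitted effect of over 65% in size; a mitochondrial uncoupler was the plate control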
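Decision-based qHTS: stable cells, 24 h exposure to five compound concentrations, CCCP as control. Fixed cells stained for PINK1 plus nuclear, mitochondrial and cell markers, cytometer read.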
D2 potentiator = human D2 receptor positive allosteric modulation; P14416; DiscoveRx D2 beta-arrestin cells, luminescence, 90 min; 100% = 57 uM dopamine signal; potentiation, % (no concentration beside the values); 0.23% of 360,000 active; active = potentiation of 50% or more; inconclusive = 30% to 50%; inactive = 30% or less;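 also: compound concentration not given in the record; tested on top of an EC20 dose of dopamine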
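PathHunter D2 cells, attached overnight at 37 deg C, received compound in DMSO plus dopamine at EC20 (50 nM final) for 90 min at 37 deg C. Beta-arrestin recruitment was read as luminescence after 1 h with detection reagent at ambient temperature.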
D2 ag = activates the human D2 dopamine receptor; P14416; DiscoveRx PathHunter D2 beta-arrestin, luminescence, 90 min; 100% = 57 uM dopamine signal; activation, % (no concentration beside the values); 0.084% of 360,000 active; in the data active = activation above about 40%; inconclusive = about 15% to 40%; inactive = below about 15%; also: compound concentration not given in the record; the text of the record calls up to 30% inactive
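Agonist mode: compounds alone added to overnight-plated D2 PathHunter cells for 90 min at 37 C, with 57 uM final dopamine (EC100) defining full response. Beta-arrestin recruitment detected by chemiluminescent reagent, read after 1 h at ambient temperature.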
* marks the source's active call; other numbers are inactive results; ? = inconclusive; . = not tested or not shown; [ ] = dose if it differs, or a comment.

SMILES | TRPML1 ag | Six1-Eya2 inh | CtBP-E1A inh | PINK1 modulator | D2 potentiator | D2 ag
O=C(NC1CCCC1)C(c1ccsc1)N(C(=O)Cc1cccs1)c1ccccc1 (stereo unspecified) | 3.8 | 1 | 6 | . | -7 | -3.8
CC(c1ccc2ccccc2c1)c1ccccc1C(=O)O (stereo unspecified) | 0.2 | -6 | 1 | -0.4% | -5 | -4.4
CC1CCCC(NC(=O)COC(=O)Cc2cn3ccsc3n2)C1C (stereo unspecified) | 0.0 | 3 | 1 | -1.8% | -4 | 1.6
CCOc1ccc(S(=O)(=O)NCCc2ccccn2)cc1 | -0.4 | -1 | 10 | -0.6% | 5 | 2.8
COC(=O)c1c(C)[nH]c(C)c1-c1ccccc1Cl | 2.9 | -16 | -14 | -1.0% | -22 | -3.0
Cc1cccc(OCC(=O)Nc2ccc3c(c2)nc(CCN2CCN(c4ccccn4)CC2)n3C)c1 | -0.8 | -10 | -11 | 0.1% | -20 | 10
CCCN1CCN(CCCNC(=O)c2cc3c(=O)[nH]c4ccc(C)cc4c3s2)CC1 | 0.2 | -29 | ? | 2.2% | -10 | -2.5
CCCCN1CC(=O)N2[C@H](c3ccc(OC)cc3)[C@@H]3C(=O)N(CC)C(=O)[C@@H]3[C@]2(C)C1=O | 0.1 | 4 | . | 1.8% | -6 | -3.6
CCn1c(Cc2ccc(OC)cc2)nnc1SCc1nc2ccccc2c(=O)[nH]1 | 1.1 | -9 | -5 | -0.3% | -5 | 0.0
CC(C)Nc1nc2ccccc2c(=O)[nH]1 | -0.6 | 2 | -3 | -0.7% | -7 | -2.5
Cc1cccc(Nc2ccccc2C(=O)NCc2ccco2)c1C | 1.1 | -19 | -7 | 5.0% | 6 | -4.7
COC(=O)c1cccc(COC(=O)CNC(=O)c2ccco2)c1 | -0.4 | 1 | 6 | . | 16 | -2.0
CC(=O)Nc1cc(-c2ccccc2N(C)C)cn2c(-c3cccc(C(F)(F)F)c3)cnc12 | 0.9 | -12 | 0 | -0.2% | -10 | -2.9
CS(=O)(=O)N(CC(=O)Nc1ccc(S(=O)(=O)N2CCOCC2)cc1)c1cccc(F)c1 | 0.3 | 1 | -7 | 0.8% | -2 | -2.3
COc1ccc(CC(=O)N(C)c2ccccc2)cc1S(=O)(=O)N1CCOCC1 | 0.1 | -3 | -9 | 2.0% | -11 | -4.0
CCN1CCN(c2ncnc3scc(-c4ccc(C)c(C)c4)c23)CC1 | -0.8 | -12 | -10 | -0.1% | -1 | 13
N#CC(c1ccccc1)c1ccc(C(=O)c2ccc(F)cc2)cc1 (stereo unspecified) | 1.2 | 36 | 9 | -1.3% | -13 | -0.6
CCOC(=O)C1=C(C)Nc2nc3ccccc3n2C1c1ccccc1 (stereo unspecified) | 0.2 | 2 | 3 | ? | 3 | -0.6
CC(=O)c1nnn(-c2nc(N)nc(N(c3ccccc3)c3ccccc3)n2)c1C | -0.2 | 0 | 4 | 4.4% | 0 | -1.2
CCOC(=O)N1CCN(C(=O)Nc2ccc3nc(C)c(C)nc3c2)CC1 | 0.1 | -1 | -15 | 5.1% | -11 | 0.7
COc1ccc(OC)c(/C=N/NC(=O)CNC(=O)c2ccc(S(=O)(=O)N3CCOCC3)cc2)c1 | -0.4 | -1 | 0 | 4.0% | -14 | -5.0
CC1=C(C)CC(C(=O)N2CCN(Cc3ccc4c(c3)OCO4)CC2)C(C(=O)O)C1 (stereo unspecified) | 0.1 | -1 | 1 | -1.6% | -7 | 1.5
COC(=O)c1ccc2nc(C(F)(F)F)[nH]c2c1 | -0.3 | 9 | 1 | 1.9% | ? | 8.2
CCOc1ccc(CCNC(=O)CN2C(=O)NC(CCSC)C2=O)cc1OCC (stereo unspecified) | 0.3 | 0 | 3 | -1.1% | -7 | 4.5

Reformatted: three of the compounds above
Below each compound – TRPML1 ag, Six1-Eya2 inh, CtBP-E1A inh, PINK1 modulator, D2 potentiator, D2 ag
> CCOC(=O)N1CCN(C(=O)Nc2ccc3nc(C)c(C)nc3c2)CC1
  0.1, -1, -15, 5.1%, -11, 0.7
> COc1ccc(OC)c(/C=N/NC(=O)CNC(=O)c2ccc(S(=O)(=O)N3CCOCC3)cc2)c1
  -0.4, -1, 0, 4.0%, -14, -5.0
> CC1=C(C)CC(C(=O)N2CCN(Cc3ccc4c(c3)OCO4)CC2)C(C(=O)O)C1 (stereo unspecified)
  0.1, -1, 1, -1.6%, -7, 1.5

Additional results follow:
SMILES | TRPML1 ag | Six1-Eya2 inh | CtBP-E1A inh | PINK1 modulator | D2 potentiator | D2 ag
OC(COc1ccccc1)CN1CCC(Cc2ccccc2)CC1 (stereo unspecified) | 0.2 | -2 | -14 | -0.1% | -36 | -1.0
CCOC(=O)c1ccc(NC(=O)CCOc2ccc(C)cc2)cc1 | -0.9 | 2 | 12 | -1.8% | 3 | 0.1
CCc1ccc(NC(=S)NC2CC3CCC(C2)N3Cc2ccco2)cc1 (stereo unspecified) | 0.2 | -7 | -8 | -0.2%[38.3 µM] | -18 | -0.6
Clc1ccc(CN2C3=NCCN3c3ccccc32)cc1Cl | 2.0 | -1 | -1 | -4.6% | -9 | -3.4
COc1ccc2ccccc2c1CN1CCN(Cc2ccccc2)CC1 | 0.8 | -13 | -15 | 10%[38.3 µM] | -31 | -2.1
CCN(CC)CCCN1C(=O)C(O)=C(C(=O)c2ccco2)C1c1ccc(C)o1 (stereo unspecified) | -0.5 | -11 | 3 | 0.9% | -4 | -1.6
COc1ccccc1NC(=O)c1cc(=O)[nH]c2ccccc12 | 0.0 | -13 | 7 | 1.7% | -24 | -3.8
O=C(N/N=C/C=C/c1cccc([N+](=O)[O-])c1)C(O)c1ccccc1 (stereo unspecified) | 1.4 | 4 | . | 1.0% | -6 | -5.4
Cc1cc2n(n1)SC(Nc1ccc(F)cc1)N2 (stereo unspecified) | -0.4 | 3 | -1 | 0.0%[38.3 µM] | 9 | -0.5
N#CC1(NC(=O)CSc2nc3ccccc3o2)CCCCC1 | -0.3 | 29 | -15 | -0.7% | -32 | -1.2
COc1ccc(C(=O)N2CCCCC2c2cc(C(=O)Nc3cccc(C#N)c3)no2)cc1 (stereo unspecified) | -0.6 | -3 | 2 | 2.3% | -4 | -3.6
CCCOc1ccc(Cn2c(=O)oc3ccc(C)cc32)cc1 | 3.4 | 33 | . | 2.9% | -12 | -4.5
CCC(C)Sc1ccc([C@@H]2[C@@H]3C(=O)N(C)C(=O)[C@@H]3[C@]3(C(=O)OC)CCCCN23)cc1 (stereo partly specified) | -0.6 | 4 | 0 | 7.3% | -19 | -0.8
O=[N+]([O-])c1ccc(O)c(C=NNc2ccc(S(=O)(=O)O)cc2)c1 | -0.5 | ? | -3 | 0.5% | -22 | -7.4
O=C(CCC(=O)N1CCN(S(=O)(=O)c2ccc([N+](=O)[O-])cc2)CC1)N1CCOCC1 | 0.5 | 3 | 16 | -4.4% | -2 | 2.9
CCCC(=O)Nc1nnc(SCC(=O)Nc2nc(C)cs2)s1 | -0.5 | 0 | 7 | 6.5% | -7 | -4.3
Cc1nc(-c2nc(-c3c(C(=O)NNC(=O)Nc4cccc(Cl)c4)noc3C)cs2)cs1 | -0.2 | -24 | -5 | 2.6% | 1 | 4.3
COc1ccc(CCNC(=O)c2ccccc2C(=O)NCCc2ccc(OC)cc2)cc1 | -1.1 | -14 | . | 6.7% | -29 | -6.7
Cc1ccc(NC(=O)CSc2nccn2Cc2ccco2)c(C)c1 | 1.5 | -4 | 0 | -0.2% | -6 | -3.2
Nc1nc(C(F)(F)F)cc(=O)[nH]1 | -0.3 | 5 | . | 1.8% | -15 | -6.0
COc1cccc(C(=O)C2CN(c3ccccc3)CC2c2ccc(Cl)cc2)c1 (stereo unspecified) | 0.0 | -12 | -13 | 11%[38.3 µM] | -16 | -2.8
O=C(Nc1nccs1)c1c(O)c2c([nH]c1=O)CCCC2 | 0.4 | -11 | 6 | 4.7% | -1 | -3.6
O=C(COC(=O)/C=C/c1ccccc1)NCc1ccco1 | -1.0 | -8 | -7 | 1.1% | -13 | -1.1
Cc1ccc(C(=O)Nc2ccc(N3CCN(C(=O)c4cccs4)CC3)cc2)c(Cl)c1 | -0.1 | -13 | -23 | 5.6% | -8 | -2.7
CC1CCCCN1C(=O)C12CCC(C)(/C(=N/O)C1)C2(C)C (stereo unspecified) | 0.4 | 3 | 10 | -0.3% | 0 | -1.9
COc1ccc(SCC(=O)Nc2ccc(N3CCN(C)CC3)c(F)c2)cc1 | -0.8 | 2 | 20 | 7.2% | -21 | 0.4
Cc1cccc(/C(N)=N/OC(=O)c2cccs2)c1 | 3.6 | 11 | 24 | 0.3% | 112* | ?
Cc1csc2nc(CNC(=O)CCC(=O)O)cn12 | 0.0 | -2 | -1 | -0.4% | 1 | 0.6
Cc1ccc(C2=Nc3c(ccc4ccccc34)C(c3ccncc3)=NN2)cc1 | 2.5 | -23 | . | 5.8% | 2 | 12
CCN(CC)C(=O)C1CCCN(C/C=C/c2ccccc2)C1 (stereo unspecified) | 0.0 | 1 | 16 | ? | -19 | -1.8
Cn1ncc(Cl)c1C(=O)Nc1ccc(CN2CCCCC2)cc1 | 1.0 | 0 | 3 | 0.3% | -39 | -4.8
CC1(C)NC(=O)N(CCCOc2ccc3c(c2)CCC3)C1=O | 2.5 | 0 | 1 | 7.6%[38.3 µM] | 7 | -0.5
Cc1ccccc1C(=O)/C=C1/SCC(=O)N1C | 0.8 | 3 | 4 | -0.2% | -7 | -5.0
CC(=O)c1ccc(-c2cccc3nccn23)cc1 | -0.5 | 11 | 14 | -0.1% | -3 | 6.0
CCN1CCN(c2cc(C)c3cc(NC(=S)N4CCOCC4)ccc3n2)CC1 | -0.1 | -9 | . | 5.1% | -13 | -2.1

One compound at a time (already shown). Order of values: TRPML1 ag, Six1-Eya2 inh, CtBP-E1A inh, PINK1 modulator, D2 potentiator, D2 ag
Results for Cn1ncc(Cl)c1C(=O)Nc1ccc(CN2CCCCC2)cc1 = 1.0, 0, 3, 0.3%, -39, -4.8
Results for Cc1ccc(C2=Nc3c(ccc4ccccc34)C(c3ccncc3)=NN2)cc1 = 2.5, -23, ., 5.8%, 2, 12
Results for CCN(CC)C(=O)C1CCCN(C/C=C/c2ccccc2)C1 (stereo unspecified) = 0.0, 1, 16, ?, -19, -1.8
Results for Cc1csc2nc(CNC(=O)CCC(=O)O)cn12 = 0.0, -2, -1, -0.4%, 1, 0.6
Results for Cc1cccc(/C(N)=N/OC(=O)c2cccs2)c1 = 3.6, 11, 24, 0.3%, 112*, ?

Source: PubChem BioAssay
